Menin-MLL FL inh – qHTS Assay for Inhibitors Targeting the Menin-MLL Interaction in MLL Related Leukemias: Competition With Fluorescein Labeled MLL-derived Peptide; FP activity change, % at 61.4 µM; 290,000 tested, under 10 active; Fluorescence polarization, fluorescein-MLL peptide displacement from menin; AID 1766, 2009; inconclusive = falling polarisation curve, or a change in total fluorescence; inactive = total fluorescence flat and polarisation flat or rising; no compound was filed as active; the % refers to the polarisation; negative = inhibition;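 note: % of control where 0% means no effect; inhibitors lower the polarisation; unlabelled MLL peptide was the positive control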
TRPML1 ag – qHTS for Agonists of the Human Mucolipin Transient Receptor Potential 1 (TRPML1); TRPML1-expressing cells, Ca2+ dye fluorescence, FDSS; host cell line not named in the record; reference of the full effect not given here; activation, % (concentration not given with the values); actives 0.12% (n = 410,000); AID 624414, 2012; in the data active = activation above about 50%; inconclusive = about 30% to 50%; inactive = below about 30%; note: 0% is about no effect; the text of the record puts the active cut at 80%
Target sequence (Q9GZU1 whole entry, looked up): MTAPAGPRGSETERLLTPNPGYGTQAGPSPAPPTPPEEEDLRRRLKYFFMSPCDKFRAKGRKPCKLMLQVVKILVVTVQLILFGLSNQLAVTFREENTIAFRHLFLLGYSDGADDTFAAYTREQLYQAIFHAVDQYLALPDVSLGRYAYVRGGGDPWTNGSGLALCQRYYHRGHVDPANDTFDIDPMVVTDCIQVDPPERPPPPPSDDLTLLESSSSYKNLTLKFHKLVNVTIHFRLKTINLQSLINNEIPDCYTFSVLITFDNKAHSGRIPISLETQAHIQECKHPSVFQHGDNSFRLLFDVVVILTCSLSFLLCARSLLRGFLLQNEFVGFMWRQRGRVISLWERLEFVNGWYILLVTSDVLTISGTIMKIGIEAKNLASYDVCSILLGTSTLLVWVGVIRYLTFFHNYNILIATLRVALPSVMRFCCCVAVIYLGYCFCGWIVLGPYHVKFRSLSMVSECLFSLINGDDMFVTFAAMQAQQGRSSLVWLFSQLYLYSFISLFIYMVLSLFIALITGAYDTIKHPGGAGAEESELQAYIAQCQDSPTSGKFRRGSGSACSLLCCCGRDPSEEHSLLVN
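Tetracycline-induced TRPML1-DL cells are seeded and incubated overnight before loading with a no-wash Ca2+ dye and quencher. Agonist activity is taken from the 110 s fluorescence read following compound pin-transfer on an FDSS, before EC80 54-4 challenge.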
TRPML1 blocker – qHTS for Inhibitors of the Human Mucolipin Transient Receptor Potential 1 (TRPML1) | Mucolipin-1 (Homo sapiens), Q9GZU1 | TRPML1-inducible cells, Ca2+ dye fluorescence, FDSS; stronger effect = lower value; inhibition of EC80 agonist-evoked calcium signal | activity change, negative = inhibition, % (no concentration beside the values) | actives 0.02% (n = 390,000) | AID 624415, 2012; in the data active means activity change below about -50%; inconclusive means about -30% to -50%; inactive means above about -30%;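 note: stimulus is agonist 54-4 at its EC80 concentration; % is set by controls: 0 for no effect and ±100 for the full control effect; compound concentration not given in the record; the text of the record puts the active cut at -80%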
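TRPML1-DL cells, Tet-induced overnight (~16 h, 37 °C) at 1,500 cells/well, were loaded with Ca8 no-wash dye plus quencher for 45-90 min at room temperature. Compounds were pinned during FDSS kinetic reading; agonist 54-4 at EC80 (4 uM final) then added.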
gsp agonist – qHTS for Agonist of gsp, the Etiologic Mutation Responsible for Fibrous Dysplasia/McCune-Albright Syndrome: qHTS; gsp mutant cells, cAMP HTRF, 30 min; control for the full effect not named in the record; Potency, µM (doses to about 76.9 µM), inactives show at the top dose activation (cAMP increase), hits mostly activators; actives 0.13% (n = 340,000); active = well fitted activation curve with a large enough effect; inconclusive = small, poorly fitted or top-dose-only effect, or another doubt; inactive = no such curve, though single readings can be large or run the other way; cell line not stated here;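 note: phosphodiesterase inhibitor Ro 20-1724 added with compounds to block cAMP breakdown; potency is the fitted concentration of half-maximal effect; nearly all actives have a fitted effect of over 60% in size; about a fifth of the inactives were tested at one dose only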
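Cells stably selected in G418 were plated at 2000/well, grown 16-24 hr, then given compounds in DMSO with the PDE inhibitor […] (300 uM solution added) for 30 min at 37C; cAMP was read by HTRF.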
gsp antagonist – qHTS for Antagonists of gsp, the Etiologic Mutation Responsible for Fibrous Dysplasia/McCune-Albright Syndrome: qHTS; gsp-mutant cells, cAMP HTRF, 30 min; control for the full effect not named in the record; Potency, µM (doses to about 76.9 µM), inactives show at the top dose activity change, negative = inhibition, hits mostly inhibitors; actives 0.4% (n = 340,000); active = falling curve of any shape with a large fitted effect; inconclusive = falling curve, mostly with a smaller effect; inactive = flat or rising curve; cell line not stated here;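 note: intracellular cAMP measured with PDE inhibitor Ro 20-1724 present during compound exposure; potency is the fitted concentration of half-maximal effect; % is set by controls: 0 for no effect and ±100 for the full control effect; nearly all actives have a fitted effect of over 65% in size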
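G418-selected cells were plated in DMEM/10% FBS for 16-24 h at 37C, then treated with compounds plus the PDE inhibitor […] (300 uM solution added) for 30 min at 37C. Intracellular cAMP was measured by HTRF after 30 min lysis at room temperature.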
ClpP mod – qHTS Assay for Activators of ClpP | ATP-dependent Clp protease proteolytic subunit (Bacillus subtilis (strain 168)), P80244 | Potency, µM (titrated, usually from 57.5 µM), inactives show at the highest dose activity change, negative = active | purified B. subtilis ClpP, FRET peptide cleavage, 20 min | actives 1.9% (n = 340,000); active = well fitted falling curve with a large enough effect; inconclusive = small, poorly fitted or top-dose-only effect; inactive = no such curve, though single readings can be large or run the other way; note: potency is the fitted concentration of half-maximal effect; the source files actives as falling curves though it sought activators and does not explain the sign; nearly all actives have a fitted effect of over 65% in size; many hits overshoot -100%
Target sequence (P80244 whole entry, looked up): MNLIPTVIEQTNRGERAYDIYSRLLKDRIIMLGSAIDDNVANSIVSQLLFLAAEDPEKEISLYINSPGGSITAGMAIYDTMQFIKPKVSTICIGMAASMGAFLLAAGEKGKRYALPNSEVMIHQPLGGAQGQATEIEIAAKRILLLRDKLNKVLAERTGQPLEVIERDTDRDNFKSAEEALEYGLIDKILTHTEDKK
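ClpP 10 microg/mL final, pH 8 Tris/KCl buffer with BSA, glycerol, Tween-20; compound pinned in; FRET-FV substrate; RT 20 min; Ex320/Em430; ΔFRET vs ADEP 5.8 microM, DMSO, no enzyme.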
The depositor's hits bear a star; ? = inconclusive; · = no result given; & = joins results of further samples; [ ] = dose if it differs, or a comment.

mol,Menin-MLL FL inh,TRPML1 ag,TRPML1 blocker,gsp agonist,gsp antagonist,ClpP mod
CCOC(=O)N1CCN(c2nc(C)cc(C(F)(F)F)n2)CC1,0.3,-0.2,5,-12%,13%,-0.9%
COc1ccc(C(=O)N/C(=C\c2ccco2)C(=O)NCCCn2ccnc2)cc1,-1.9,-0.4,3,10%,6%,101%
O=C(C1CCC1)N1CCCc2cc(S(=O)(=O)Nc3ccc(F)cc3)ccc21,·,-0.4,-20,·,·,-1.2%
CC(C)NC(=O)CSc1nnc(-c2ccc(C(C)(C)C)cc2)n1C,4.3,-0.2,14,-10%,-20%,-1.3%
CCC1(c2ccccc2)NC(=O)N(CC(=O)NC2CCCC2)C1=O (configuration not stated),·,0.2,0,25%[15.4 µM],2%,-1.5%
Cc1ccc(CS(=O)(=O)c2ncc(Cl)c(C(=O)Nc3nnc(C(C)C)s3)n2)cc1,-1.2,0.4&-1.3,1&7,-10%[15.4 µM],18µM*,-2.7%
O=C(COCc1cc(-c2ccc3c(c2)OCO3)on1)N1CCCCC1,·,-0.6,1,18%,-2%,-22%
NNC(=O)c1n[nH]c2c1CC(C1CCCCC1)CC2 (configuration not stated),·,0.4,15,·,-9%,-2.6%
O=C(Nc1ccccc1F)c1ccc(-c2ccccc2)s1,·,5.0,9,·,·,?
CN1CCN(c2ccc(S(=O)(=O)N3CCCCC3)cc2NC(=O)c2cccc([N+](=O)[O-])c2)CC1,0.6,0.3,0,-1%,-13%,0.2%
Cc1cc(=O)oc2c1c(C)nn2-c1ccc(Br)cc1,7.7,0.5,-11,1%[15.4 µM],-2%,·
CSCC(=O)N1CCCC(CO)(CCCc2ccccc2)C1 (configuration not stated),-4.0,0.1,2,1%,9%,·
CCC1(c2ccc(F)cc2)NC(=O)N(CC(=O)Nc2ccc3c(c2)OCCO3)C1=O (configuration not stated),·,8.9,2,-31%[inhibitor],-9%,0.6%
COc1ccccc1CNC(=O)COCc1cc(-c2ccc3c(c2)OCO3)on1,·,-0.4,42,·,·,-7.6%
COCCN1C(=O)N(c2cccc(C)c2)C(=O)C1CC(=O)Nc1ccc(F)cc1 (configuration not stated),1.3,0.8,-5,20%,0%,-1.9%
O=C(CN1CCN(S(=O)(=O)c2ccc(Br)cc2)CC1)Nc1ccccc1F,3.5,-1.0,4,-29%,-2%,-0.3%
Cc1cccc(N(CC(=O)NC2CCCCC2)C(=O)c2ccc(C)s2)c1,-0.9,-0.1,13,-20%,1%,0.8%
COc1ccc(/C=N/NC(=O)c2ccc(COc3cccc4cccnc34)cc2)cc1O,1.9,0.2,0,-3%[15.4 µM],-15%,·
CC1CCN(S(=O)(=O)c2ccc3c(c2)N(CC(=O)N2CCN(c4ccccc4)CC2)C(=O)CO3)CC1,·,1.7,4,·,·,-3.2%
CC1=C(C(=O)Nc2ccccc2C)C(c2cccnc2)n2nc(CCCO)nc2N1 (configuration not stated),-0.9,-0.5,23,0%,0%,-0.5%
O=C(Cn1cc([N+](=O)[O-])ccc1=O)N1CCc2ccccc2C1,·,-0.4,-1,-11%,0%,-2.0%
COc1ccc2c(c1)c(CC(=O)OC(C)C(=O)N(C)C)c(C)n2C(=O)c1ccc(Cl)cc1 (configuration not stated),0.0,1.4,40,27%,?,·
COc1ccc(C(=O)N2CCCc3ccccc32)cc1,3.3,0.0,1,4%,-9%,-2.9%
CC(=O)Nc1ccc(Oc2sc(C(=O)c3ccccc3)c(N)c2C#N)cc1,1.6,0.3,16,-30%[inhibitor],-10%,0.3%
COc1ccc(C2C(C(=O)/C=C/c3ccco3)=C(O)C(=O)N2CCN2CCOCC2)cc1 (configuration not stated),?,0.6,3,-5%[15.4 µM],-7%,3.7%
CC(=O)Nc1cc(C(=O)N(C)Cc2ccccc2)ccc1S(=O)(=O)c1ccc(C)cc1,3.8,3.8,23,-6%,2%,-2.1%
COc1ccc(C(C)=O)cc1CSc1nncn1-c1ccccc1,-0.9,5.4,5,0%,4%,1.6%
CCOc1ccccc1NC(=O)Cn1ccn(-c2ccccc2)c(=O)c1=O,·,0.8,8,·,·,-0.5%
Oc1c(Br)cc(Br)cc1CNc1cccc2cccnc12,14,0.9,-11,-3%,-1%,-3.2%
O=C(NCc1ccc(F)cc1)C1CCCN1C(=O)NCc1ccccc1 (configuration not stated),1.6,-0.4,-14,-18%,18%,0.0%

A run of entries of the results above, as a working copy:
mol,Menin-MLL FL inh,TRPML1 ag,TRPML1 blocker,gsp agonist,gsp antagonist,ClpP mod
CC(=O)Nc1ccc(Oc2sc(C(=O)c3ccccc3)c(N)c2C#N)cc1,1.6,0.3,16,-30%[inhibitor],-10%,0.3%
COc1ccc(C2C(C(=O)/C=C/c3ccco3)=C(O)C(=O)N2CCN2CCOCC2)cc1 (configuration not stated),?,0.6,3,-5%[15.4 µM],-7%,3.7%

Further entries follow:
mol,Menin-MLL FL inh,TRPML1 ag,TRPML1 blocker,gsp agonist,gsp antagonist,ClpP mod
CCC(c1nc2ccccc2[nH]1)N(Cc1cccnc1)C(=O)c1cc(-c2ccccc2)on1 (configuration not stated),·,-0.1,9,·,·,-1.9%
O=C(O)C1CC=CCC1C(=O)N1CCN(c2nc(-c3ccccc3)c3ccccc3n2)CC1 (configuration not stated),1.9,0.7,0,?,-6%,-19%
Cc1ccccc1N1CC(C(=O)Nc2nnc(SCCC3OCCO3)s2)CC1=O (configuration not stated),5.3,0.0,4,-11%[15.4 µM],-6%,-0.4%
CCOc1ccc(-n2nc3cc(C)c(NC(=O)CC)cc3n2)cc1,·,-0.4,-8,·,·,2.7%
CCOc1ccc(NC(=O)c2ccc3[nH]c(=O)c(=O)[nH]c3c2)cc1,2.0,0.2,34,-22%,7%,-4.3%
CC1CN(C(=O)c2cccc(S(=O)(=O)N3CCN(c4ccccc4)CC3)c2)CC(C)O1 (configuration not stated),·,-0.2,-12,8%,3%,0.3%
CC(=O)c1cccc(Nc2c([N+](=O)[O-])c(=O)oc3ccccc23)c1,1.3,2.3,-9,18%,-18%,·
CS(=O)(=O)N1CCCC(C(=O)NCCc2ccccc2)C1 (configuration not stated),5.1,-0.1,13,-43%,2%,0.5%
O=C(Nc1ccccc1Cl)c1ccc2nsnc2c1,7.1,1.6,26,1%[15.4 µM],4%,·
O=C(OC1CCOC1=O)c1ccc(Cl)c(S(=O)(=O)N2CCCCC2)c1 (configuration not stated),0.7,-0.9,33,?,-11%,·
COCCn1c(SCC(=O)Nc2ccccc2OC)nc2ccccc2c1=O,-0.7,1.3,-4,0%,4%,-0.3%
COc1ccccc1Oc1ccc2c(c1)C(=O)N(CC1CCCO1)C2=O (configuration not stated),3.1,-0.3,27,12%[15.4 µM],-27%,-0.3%
CCN(C(=O)COC(=O)C1CCN(S(=O)(=O)c2ccc3c(c2)OCCO3)CC1)C1CCCCC1,·,-0.1,-2,22%,-7%,-8.2%
COc1ccc(C(=O)C2CCN(C(=O)c3ccc(OC)cc3)CC2)cc1,-0.1,-0.3,12,0%[15.4 µM],6%,-1.5%
Cc1cnn(-c2cc(N/N=C/c3ccc(F)cc3)ncn2)c1,2.1,-0.5,2,18%,11%,-4.7%
COc1ccccc1C(=O)OCc1cc(=O)n2nc(C3CCCCC3)sc2n1,·,-0.2,-3,·,·,-2.5%
CC1CCCCC1NC(=O)CCCCCn1c(=S)[nH]c2ccccc2c1=O (configuration not stated),2.0,0.2,5,16%,-6%,·
O=C(Nc1ccc(Cl)cc1Cl)c1ccc2c(c1)OCCO2,·,3.5,8,0%,1%,-1.4%
COCC(C)n1c(COc2ccccc2F)nnc1SCC(=O)c1c(N)n(C)c(=O)n(C)c1=O (configuration not stated),-1.1,-0.7,3,-15%[15.4 µM],6%,0.4%
Cc1c(CCC(=O)NCCCCCC(=O)O)c(=O)oc2c(C)c3oc4c(c3cc12)CCCC4,0.4,0.1,-27,?,-16%,?
Cc1nn(Cc2ccc(F)cc2)c(C)c1NC(=O)c1nn(C)cc1Cl,1.1,-0.7,2,-47%[inhibitor],9%,-0.6%
O=C(C[C@H]1C/C=C/CC[C@@H](Cc2ccc(F)cc2)C(=O)O[C@@H](c2ccccc2)CNC1=O)NCCO,·,0.6,-15,-35%[inhibitor],-8%,-0.2%
COc1ccc(C(=O)NC(C)CCn2cccn2)cc1OC1CCN(C(C)C)CC1 (configuration not stated),·,0.7,26,-11%,10%,-0.6%
O=C1CC(Sc2ncccc2C(=O)O)C(=O)N1 (configuration not stated),-1.8,-0.1,-1,-4%[15.4 µM],7%,·
Cc1ccc(/C=N/NC(=O)Cn2cnc3ccccc32)o1,1.7,1.1,10,-5%,1%,-3.5%
CC(=O)Nc1nc(C)c(-c2csc(Nc3cccc(C(C)=O)c3)n2)s1,-1.5,0.9,-12,-31%[inhibitor],5%,-1.9%
O=C(OCc1cn([C@H]2C[C@H](c3ccccc3)N(Cc3cccs3)C[C@@H]2O)nn1)c1ccccc1,·,0.8,5,-44%,·,0.4%
C[C@H](CO)N1C[C@H](C)[C@@H](CN(C)S(=O)(=O)c2ccccc2)Oc2ccc(NC(=O)Cn3cnnn3)cc2C1=O,·,0.0,5,·,11%,1.2%
Cc1cc(=O)[nH]c(SCC(=O)NCC2CCCO2)n1 (configuration not stated),1.4,·,·,4%,7%,1.1%
O=C(C1CCCCC1)N1CCCC(c2nc3c(nnn3Cc3ccccc3)c(=O)[nH]2)C1 (configuration not stated),1.7,1.5,7,-1%,-12%,-2.8%
O=C(O)[C@H](Cc1ccccc1)Nc1ccc([N+](=O)[O-])cn1,-0.4,1.2,15,-15%,4%,-3.5%

gsp antagonist: entries above that show a hit.
mol | Menin-MLL FL inh | TRPML1 blocker | gsp agonist | gsp antagonist
Cc1ccc(CS(=O)(=O)c2ncc(Cl)c(C(=O)Nc3nnc(C(C)C)s3)n2)cc1 | -1.2 | 1&7 | -10%[15.4 µM] | 18µM*

Screening data deposited in PubChem BioAssay by National Center for Advancing Translational Sciences (NCATS).
